gsp ag – gsp mutant agonism | gsp mutant cells, cAMP HTRF, 30 min; control for the full effect not named in the record | Potency, µM (series often up to 76.9 µM), for the others: top-dose activation (cAMP increase), actives largely listed as activators | 0.13% of 340,000 active | AID 624287; active = well fitted activation curve with a large enough effect; inconclusive = small, poorly fitted or top-dose-only effect, or another doubt; inactive = no such curve, though single readings can be large or run the other way; cell line not stated here;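 also: phosphodiesterase inhibitor Ro 20-1724 added with compounds to block cAMP breakdown; potency is read from the fitted curve at half-maximal effect; nearly all actives have a fitted effect of over 60% in size; about a fifth of the inactives were tested at one dose only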
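Cells stably selected in G418 were plated at 2000/well, grown 16-24 hr, then given compounds in DMSO with the PDE inhibitor […] (300 uM solution added) for 30 min at 37C; cAMP was read by HTRF.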
TRPV1 PAM – human TRPV1 potentiation | Q8NER1 | TRPV1-expressing cells, Fluo-8 calcium influx, capsaicin EC20 potentiation; host cell line not named in the record; control for the full effect not named in the record | potentiation, % at 8.33 µM | 0.02% of 320,000 active | AID 540277; active means potentiation above 80%; inconclusive means 30% to 80%; inactive means below 30%; also: 0% is about no effect
Target sequence (Q8NER1 whole entry, looked up): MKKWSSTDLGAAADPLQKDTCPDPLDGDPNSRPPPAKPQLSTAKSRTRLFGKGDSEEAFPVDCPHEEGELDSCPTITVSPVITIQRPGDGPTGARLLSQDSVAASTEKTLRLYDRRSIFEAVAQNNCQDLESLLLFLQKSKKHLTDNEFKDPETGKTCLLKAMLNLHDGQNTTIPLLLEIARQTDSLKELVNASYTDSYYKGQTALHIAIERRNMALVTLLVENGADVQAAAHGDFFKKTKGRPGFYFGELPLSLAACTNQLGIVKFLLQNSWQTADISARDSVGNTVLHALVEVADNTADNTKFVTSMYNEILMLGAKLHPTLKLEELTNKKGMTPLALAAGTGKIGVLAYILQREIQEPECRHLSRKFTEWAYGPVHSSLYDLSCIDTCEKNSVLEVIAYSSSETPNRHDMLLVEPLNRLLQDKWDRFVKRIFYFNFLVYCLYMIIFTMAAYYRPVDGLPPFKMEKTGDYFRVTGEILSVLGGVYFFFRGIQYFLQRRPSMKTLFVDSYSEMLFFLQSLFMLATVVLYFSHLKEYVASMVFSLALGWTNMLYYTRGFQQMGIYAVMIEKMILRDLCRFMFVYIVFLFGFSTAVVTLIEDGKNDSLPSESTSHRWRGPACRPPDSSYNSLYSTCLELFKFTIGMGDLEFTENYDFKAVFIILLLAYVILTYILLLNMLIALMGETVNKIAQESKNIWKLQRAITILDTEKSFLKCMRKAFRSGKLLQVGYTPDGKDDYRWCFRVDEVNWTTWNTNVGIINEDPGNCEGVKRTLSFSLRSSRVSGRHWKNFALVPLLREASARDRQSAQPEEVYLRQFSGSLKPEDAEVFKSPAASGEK
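Cells expressing TRPV1 were dye-loaded with Fluo-8 and read kinetically: 10 s baseline, 3 min after compound (agonist portion), then 2 min after EC20 capsaicin (allosteric enhancer portion). Calcium-bound dye fluorescence at 480/520 nm.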
TRPML1 inh – inhibitors of human TRPML1 channel; Q9GZU1; TRPML1-inducible cells, Ca2+ dye fluorescence, FDSS; active compounds read low; inhibition of EC80 agonist-evoked calcium signal; activity change, negative = inhibition, % (concentration not given with the values); 0.02% of 390,000 active; AID 624415; in the data active means activity change below about -50%; inconclusive means about -30% to -50%; inactive means above about -30%;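 also: stimulus is agonist 54-4 at its EC80 concentration; % is scaled to controls: 0 for no effect and ±100 for the full control effect; the text of the record puts the active cut at -80%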
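Tet-induced TRPML1-DL cells loaded with Ca8 no-wash calcium dye were read kinetically on FDSS. Compound addition was followed by EC80 agonist 54-4 (4 uM final); inhibition was read over 110 s.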
gsp antag – gsp mutant antagonism; gsp-mutant cells, cAMP HTRF, 30 min; control for the full effect not named in the record; Potency, µM (top dose mostly 76.9 µM), for inactives: top-dose activity change, negative = inhibition, hits mostly inhibitors; AID 624288; 0.4% of 340,000 active; active = falling curve of any shape with a large fitted effect; inconclusive = falling curve, mostly with a smaller effect; inactive = flat or rising curve; cell line not stated here;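 also: intracellular cAMP measured with PDE inhibitor Ro 20-1724 present during compound exposure; potency is read from the fitted curve at half-maximal effect; % is scaled to controls: 0 for no effect and ±100 for the full control effect; nearly all actives have a fitted effect of over 65% in size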
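Cells in G418 medium, seeded 16-24 h, 37C; buffer exchange to DPBS + 1 mM CaCl2, 0.5 mM MgCl2, 0.05% BSA; cpds in DMSO + […] (300 uM stock), 30 min 37C; HTRF cAMP detection.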
Sfp inh – Sfp phosphopantetheinyl transferase inhibition; Potency, µM, for inactives: max response, negative = inhibition, actives largely listed as inhibitors; Q9F4F7; Biochemical Sfp PPTase activity, qHTS; 3.5% of 310,000 active; active = well fitted inhibition curve with a large enough effect; inconclusive = small, poorly fitted or top-dose-only effect, or another doubt; inactive = no such curve, though single readings can be large or run the other way;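 also: the enzyme is Sfp with the accession as filed and its product quenches rhodamine fluorescence; potency is read from the fitted curve at half-maximal effect; 0% = enzyme reaction without inhibitor and -100% = no enzyme wells; top concentration of the series not given in the record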
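With Hepes-Na pH 7.6 buffer containing 10 mM MgCl2, Sfp (15 nM) modified BHQ-2-YbbR (12.5 uM) using rhodamine-CoA (5 uM). Two reads 30 minutes apart at 525/598 nm yielded each well's rate.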
Menin-MLL FL inh – displaces fluorescein MLL peptide from human menin. FP activity change, % at 61.4 µM. AID 1766. Fluorescence polarization, fluorescein-MLL peptide displacement from menin. 290,000 tested, under 10 active; inconclusive = falling polarisation curve, or a change in total fluorescence; inactive = total fluorescence flat and polarisation flat or rising; no compound was filed as active; the % refers to the polarisation; negative = inhibition;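 also: % of control where 0% means no effect; inhibitors lower the polarisation; unlabelled MLL peptide was the positive control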
ClpP mod – qHTS Assay for Activators of ClpP; ATP-dependent Clp protease proteolytic subunit (Bacillus subtilis (strain 168)), P80244; purified B. subtilis ClpP, FRET peptide cleavage, 20 min; Potency, µM (doses to about 57.5 µM), for the others: at the highest dose activity change, negative = active; 1.9% of 340,000 active; AID 651965, 2013; active = well fitted falling curve with a large enough effect; inconclusive = small, poorly fitted or top-dose-only effect; inactive = no such curve, though single readings can be large or run the other way; also: potency is read from the fitted curve at half-maximal effect; the source files actives as falling curves though it sought activators and does not explain the sign; nearly all actives have a fitted effect of over 65% in size; many hits overshoot -100%
Target sequence (P80244 whole entry, looked up): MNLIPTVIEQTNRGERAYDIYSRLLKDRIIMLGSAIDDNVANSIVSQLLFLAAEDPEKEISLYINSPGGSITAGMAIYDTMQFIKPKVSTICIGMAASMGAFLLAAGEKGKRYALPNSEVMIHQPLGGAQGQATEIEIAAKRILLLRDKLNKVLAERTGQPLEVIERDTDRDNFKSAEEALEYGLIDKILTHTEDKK
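FRET quenching reversal measured ClpP activation: 10 microg/mL B. subtilis ClpP at pH 8 with the FRET-FV decapeptide, read at 430 nm after 320 nm excitation. The 20-min minus 0-min signal was scaled between DMSO/no-enzyme wells and ADEP (5.8 microM final).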
An asterisk follows results filed as active; ? = inconclusive; · = no result given; [ ] = remark or other dose.

Below each SMILES: ClpP mod, Menin-MLL FL inh, gsp ag, Sfp inh, TRPV1 PAM, TRPML1 inh, gsp antag
> COC(=O)Cc1ccc(NC(=S)N2CCN(C(=O)C3CCCO3)CC2)cc1 (stereo not given)
    -1.0%, ·, 2.0%, 1.6%, 8.2, -11.8, 5.8%
> O=C(NCCc1ccccc1)C(=O)c1cn(CC(=O)N2CCCC2)c2ccccc12
    -4.0%, ·, -5.4%, 5.8%, -11.6, -5.5, -7.6%
> CNC(=O)c1ccc(CN(C)C(=O)c2cc(C3CC3)nc3c2cnn3C(C)C)cc1
    -14.3%, ·, -54.5%[inhibitor], ·, ·, 31.1, ·
> O=C(CN1C(=O)c2ccccc2C1=O)Nc1cccc([N+](=O)[O-])c1
    ·, 1.8, 21.4%[15.4 µM], -10.8%, 3.7, 4.5, 3.3%
> N=c1n(Cc2ccccc2Cl)c2ccccc2n1CC(O)c1ccco1 (stereo not given)
    -28.9%, -5.5, -6.8%[15.4 µM], 3.5%, -3.2, 1.4, 14.5%
> O=C(CCS(=O)(=O)c1ccccc1)NC12CC3CC(CC(C3)C1)C2
    120.4%, 0.3, 22.4%, 15.0%, -7.0, ?, -0.6%
> CC1(C)Cc2c(c(N3CCOCC3)nc3snc(Br)c23)CO1
    -2.9%, 1.4, 27.7%, 44.7µM*, -4.5, 12.3, 11.4%
> O=C(Cc1cccs1)Nc1ccccn1
    -3.0%, 3.3, -12.2%[15.4 µM], 5.2%, -2.4, 0.9, 12.3%
> Cc1nnc(SCC(=O)NC2CCCC2)s1
    5.8%, 1.9, -11.9%, 7.7%, 19.4, 27.7, 12.2%
> Cc1cc2c(c(SCC(N)=O)n1)C(=O)OC2
    -1.2%, -0.4, -0.8%[15.4 µM], 21.5%, -3.9, 6.3, 8.2%
> Cc1oc(C(N)=O)cc1COc1ccc(C(N)=O)cc1
    ·, 1.9, -4.5%[15.4 µM], 8.5%, 0.0, -10.5, 8.0%
> Cc1ccc(S(=O)(=O)N2CCN(CCNC(=O)C(=O)NCc3ccccc3)CC2)cc1
    ·, -3.8, 6.9%, 20.4%, 1.9, 3.2, 0.5%
> O=C(NC(O)C(=O)c1ccc(F)cc1)c1ccc(F)cc1 (stereo not given)
    1.2%, -0.8, 20.7%, -0.9%, -2.6, -2.3, 1.5%
> CC(=O)Nc1ccc(SC[C@H](Cc2ccccc2)N2CC[C@@H](O)CCC2=O)cc1
    0.7%, ·, 19.9%, ·, ?, 16.8, -18.0%
> O=C(O)C1C2CCC(C2)C1C(=O)Nc1nc2ccccc2s1 (stereo not given)
    -0.3%, 6.3, 14.7%, 6.0%, -6.6, -6.6, 11.1%
> COc1ccc(-c2c(C)c3cc(O)ccc3oc2=O)cc1OC
    -5.0%, 0.7, ?, -7.1%, -8.8, -4.7, -14.2%
> C(=N\N1CCN(Cc2cccc3ccccc23)CC1)/c1ccco1
    -1.9%, 1.8, -10.6%, -17.5%, -0.3, -9.6, 1.5%
> N#CCC(=O)N/N=C/c1cn(Cc2ccccc2C#N)c2ccccc12
    -0.5%, 3.4, 8.1%[15.4 µM], -1.3%, ·, -7.2, -3.7%
> O=C(NCC1CCCO1)C(C(=O)c1ccccc1)n1ccccc1=O (stereo not given)
    -3.0%, 1.2, -22.2%, -6.6%, 0.3, -6.0, 9.3%
> Cc1ccc2ccccc2c1NC(=O)c1ccco1
    -2.1%, 0.3, 1.3%, 12.4%, 20.5, ?, 4.4%
> Clc1ccc(Nc2nc(-c3cccnc3)cs2)cc1
    -0.6%, 1.0, -68.6%[inhibitor], 79.4µM*, 12.7, -7.5, 3.5%
> COCCNC(=O)C(c1ccc(F)cc1)N(C(=O)CCC(=O)Nc1nccs1)c1ccc(C)cc1 (stereo not given)
    ·, -5.4, ?, 11.9%, -12.0, -0.8, 7.1%
> COC(=O)C1CCN(S(=O)(=O)c2c[nH]c(=O)[nH]c2=O)CC1
    0.7%, ·, -85.4%[inhibitor], ·, ·, 10.5, ·
> COc1ccc(OC)c(C(c2nnnn2CCc2ccccc2)N2CCC(C(N)=O)CC2)c1 (stereo not given)
    0.1%, 0.3, -7.3%, 5.9%, 6.5, -1.8, -3.6%
> CCS(=O)(=O)N1CCCC(C(=O)NC2CCCCC2C)C1 (stereo not given)
    -0.3%, 1.0, 22.0%, 9.7%, 9.5, 3.4, -3.1%
> C=CC(=O)Nc1ccc(N(C)c2ccnc(Nc3ccc(N4CCN(C)CC4)cc3)n2)cc1
    -0.1%, ·, 16.6%, ·, ·, 0.3, -16.4%
> O=S(=O)(Nc1ccc(NS(=O)(=O)c2ccccc2)c(Cl)c1)c1ccccc1
    ·, ·, 0.3%, ·, ·, -0.7, -17.8%
> Cc1cc(C)c(S(=O)(=O)NCCn2c(C)cc3ccccc32)c(C)c1
    -0.1%, -20.4, -39.6%[inhibitor], 10.4%, ?, -0.8, -6.9%
> COC(=O)c1ccccc1NS(=O)(=O)c1c(C)noc1C
    1.5%, ·, 17.5%, 0.2%, 10.9, 14.1, 15.1%
> COc1ccc(OC)c(NC2c3ccccc3C(=O)N2c2cccnc2)c1 (stereo not given)
    0.5%, -0.6, -18.5%, -29.7%, ·, -1.6, -3.6%

Reprinted at random: two records from the list, in no set order.
Below each SMILES: ClpP mod, Menin-MLL FL inh, gsp ag, Sfp inh, TRPV1 PAM, TRPML1 inh, gsp antag
> CCS(=O)(=O)N1CCCC(C(=O)NC2CCCCC2C)C1 (stereo not given)
    -0.3%, 1.0, 22.0%, 9.7%, 9.5, 3.4, -3.1%
> Clc1ccc(Nc2nc(-c3cccnc3)cs2)cc1
    -0.6%, 1.0, -68.6%[inhibitor], 79.4µM*, 12.7, -7.5, 3.5%

(cont.)
Below each SMILES: ClpP mod, Menin-MLL FL inh, gsp ag, Sfp inh, TRPV1 PAM, TRPML1 inh, gsp antag
> Cc1ccccc1-c1noc(CCC(=O)NCCc2ccccc2)n1
    2.0%, -0.8, 7.5%, -0.3%, -0.7, -10.4, -7.5%
> COc1ccc(N(CC(=O)Nc2c(C)n(C)n(-c3ccccc3)c2=O)S(=O)(=O)c2ccccc2)cc1OC
    -0.2%, 1.4, -10.6%[15.4 µM], 6.4%, 10.3, -3.3, -9.1%
> O=C(N/N=C/c1sc(N2CCCCC2)nc1-c1cccs1)c1cccnc1
    0.3%, ?, -13.8%, -15.7%, -10.5, 1.7, -37.8%
> C#CCOC(=O)Nc1ccc(=O)n(Cc2c(Cl)cccc2Cl)c1
    28.2µM*, 0.1, -5.0%, ?, ·, 11.6, -0.2%
> COc1cc(CN2CCC(C(=O)NC3CCCC3)CC2)ccc1O
    -2.0%, 0.5, -21.6%, -19.2%, 2.1, 11.2, 11.3%
> O=C(Cn1c(=O)oc2cc(S(=O)(=O)N3CCCC3)ccc21)N1CCc2ccccc2C1
    -1.7%, -0.2, -29.3%, -3.5%, -20.9, 28.5, -11.9%
> CCCCNC(=O)c1cc2nc(-c3ccccc3)cc(C(F)(F)F)n2n1
    -2.1%, 0.4, -6.4%, 12.0%, -2.4, 6.7, 5.5%
> COc1ccccc1CNC(=O)C1CCN(S(=O)(=O)N2CC(C)CC(C)C2)CC1 (stereo not given)
    1.4%, 0.4, -12.1%, 10.5%, 1.2, -27.9, -14.3%
> CC1CCCC(NC(=O)Cn2c(Cl)nc3c2c(=O)n(C)c(=O)n3C)C1C (stereo not given)
    ·, ·, ?, ·, ·, -10.4, 11.2%
> Oc1ccc(N=Nc2nccs2)c(O)c1
    ·, ?, -35.7%[inhibitor], ?, 2.7, 20.3, -7.7%
> C[C@H](CO)N1C[C@H](C)[C@@H](CN(C)Cc2ccccc2)Oc2c(NC(=O)c3ccncc3)cccc2C1=O
    -1.7%, ·, ·, ·, ·, 2.8, -9.4%
> CC(C)Oc1ccc(C(=O)Nc2ccccc2N2CCOCC2)cc1
    -2.3%, -6.0, -12.0%, 6.2%, -20.2, -7.9, 4.2%
> Cc1ccc(NC(=O)c2cc3c(CO)cnc(C)c3oc2=Nc2cccc(C(N)=O)c2)cc1
    0.4%, -2.9, 2.7%, 8.5%, -36.1, 15.9, -1.2%
> O=C(Nc1cccc(S(=O)(=O)N2CCCCC2)c1)c1ccc(OCC2CCCO2)cc1 (stereo not given)
    -0.2%, -2.5, 43.1%[15.4 µM], 16.5%, -11.0, 23.3, -16.8%
> Cc1ccc(S(=O)(=O)N(C)CCCC(=O)N2CCOCC2)cc1
    -0.4%, -2.3, -16.7%, 11.9%, -13.7, 8.1, 5.9%
> CCOc1ccc(NC(=O)CSc2nnc(C(C)C)n2CC)cc1
    -1.3%, 2.7, -13.3%, 3.6%, -8.6, 8.8, 13.0%
> Cc1cc(C)n(Cc2ccc(NC(=O)c3ccc(COc4ccccc4Br)cc3)cc2)n1
    -10.3%, 4.2, -20.4%, 14.9%, ·, 10.9, -11.6%
> COc1ccc(NS(=O)(=O)c2cc(NC(=O)c3ccc(=O)[nH]n3)ccc2C)cc1
    0.2%, ·, -9.9%, ·, 2.4, 23.9, 6.5%
> FC(F)Oc1ccccc1/C=N/Nc1nc2ccccc2o1
    ·, -13.6, 7.4%[15.4 µM], -6.5%, -5.3, 4.7, 0.6%
> COc1cc(/C=C/C(=O)OCC(=O)c2c(N)n(C)c(=O)n(C)c2=O)ccc1OCC#N
    -5.7%, 2.0, 8.0%[15.4 µM], 15.3%, 8.0, -4.4, 1.8%
> Cc1ccc(C(=O)Nc2ccc(F)cc2)o1
    -1.8%, 2.9, 1.4%, -6.0%, -19.0, -5.1, 6.3%
> O=C(CSc1nnc(-c2ccncc2)n1CC1CCCO1)Nc1cccc(O)c1 (stereo not given)
    0.2%, -2.2, -17.9%, 13.5%, -18.8, 21.2, 3.9%
